Shh pathway inh: blocks Sonic Hedgehog signaling; Shh-LIGHT2 Gli-luciferase reporter, 30 h; inhibition, % (no concentration beside the values); hit rate 2.1% among 22,000;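 active = replicate mean of 65% or more; inconclusive = mean lower but half the replicates past it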;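 also: pathway switched on by Shh-conditioned medium diluted 1 in 25 in low serum; 100 nL library stock added to about 40 µL; 0% = median of neutral wells and 100% = positive control level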
PD-1 reverse act: reversal of PD-1 mediated T-cell inhibition; primary human CD4 T cells, PD-L1 beads, CellTiter-Glo 96 h; activation, % (test concentration not listed); 29,000 tested, under 10 active; AID 2316;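 active = replicate mean of 50% or more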;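 also: 0% = median vehicle wells and 100% = positive control; 100 nL library stock added to about 50 µL; numbers are from one replicate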
MITF inhib: inhibitors of MITF. TRPM1 promoter luciferase, luminescence, 24 h. inhibition, % (concentration not given with the values). hit rate 0.28% among 37,000. AID 2240;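 active = most replicates at 85% or more, or half of them and the mean; inconclusive = half reach 85% but not the mean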;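 also: human melanocyte line stably carrying TRPM1 promoter luciferase reporter; 0% = vehicle wells and 100% = a positive control; the first replicate is given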
YB-1 expr inh: YB-1 expression inhibition; hit rate 0.37% among 30,000; delta delta Cp (YB-1 minus CDIP) (no concentration beside the values); U2OS, qRT-PCR YB-1 vs CDIP delta delta Cp, 16 h; stronger effect = higher value; zero = DMSO, each unit about twofold;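 active = delta delta Cp rounded down to an integer at or above 3, about 3 SD of DMSO wells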;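 also: higher means less YB-1 transcript or more CDIP transcript relative to DMSO; stock transfer was 100 nL into about 100 µL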
Starred values were filed as active, the others as inactive; ? = inconclusive; · = no result given. A portion of the library. The share of hits here may be higher or lower than overall.

SMILES	Shh pathway inh	PD-1 reverse act	MITF inhib	YB-1 expr inh
C[C@@H]1CN([C@@H](C)CO)C(=O)c2cc(NS(=O)(=O)c3ccc(Cl)cc3)ccc2O[C@H]1CN(C)C(=O)Nc1ccc(C(F)(F)F)cc1	0.4	1.0	9.6	-0.0666
CSc1ccccc1NC(=O)CN(c1cc(C)cc(C)c1)S(C)(=O)=O	·	1.0	-0.5	·
COC(=O)c1ccc(CSc2nc(-c3cccs3)cc(C(F)(F)F)n2)cc1	-28.1	2.6	1.5	-0.254
Cc1ccc2cccc(S(=O)(=O)N3CCC(C(=O)O)CC3)c2n1	·	2.6	-2.9	·
CCOC(=O)c1ccc(-c2coc3cc(OC(C)=O)c(CC)cc3c2=O)o1	-22.3	0.3	-25.0	-0.0835
C[C@@H]1CCCCO[C@@H](CN(C)S(C)(=O)=O)[C@@H](C)CN([C@H](C)CO)C(=O)c2cc(NS(=O)(=O)c3ccccc3)ccc2O1	-48.0	-0.4	-14.4	-0.26
C[C@@H]1CN([C@H](C)CO)C(=O)c2cc(NS(=O)(=O)c3cn(C)cn3)ccc2O[C@@H]1CN(C)Cc1ccc(Oc2ccccc2)cc1	3.4	0.8	3.5	0.028
O=C(CSc1ncccn1)Nc1nccs1	-16.9	2.1	-24.9	0.332
COc1ccc(NC(=O)c2ccc(OCC(=O)Nc3ccccc3F)cc2)cc1Cl	·	0.6	-2.4	·
COc1ccc(Cl)cc1N(CC(=O)Nc1ccc(C)c(C)c1)S(C)(=O)=O	·	-0.9	-6.5	·
COc1ccc(NC(=O)N(C)C[C@H]2Oc3ccc(NS(C)(=O)=O)cc3C(=O)N([C@H](C)CO)C[C@H]2C)cc1	-5.5	0.6	7.0	0.175
Cc1nccc(-c2cccc(NS(=O)(=O)c3ccccc3C(F)(F)F)c2)n1	26.4	3.4	28.5	0.829
Cc1ccc(S(=O)(=O)Nc2cccc3c2O[C@H](CN(C)S(=O)(=O)c2ccc(C)cc2)[C@H](C)CN([C@H](C)CO)C3=O)cc1	-15.9	1.1	-6.1	0.402
C[C@@H]1CN([C@H](C)CO)C(=O)c2cccc(NC(=O)C3CCOCC3)c2O[C@H]1CN(C)S(C)(=O)=O	-11.3	·	-3.3	-0.108
C[C@H](CO)N1C[C@H](C)[C@@H](CN(C)S(=O)(=O)c2ccc(Cl)cc2)Oc2ccc(NC(=O)CCCN(C)C)cc2C1=O	·	0.5	3.6	-0.167
C[C@H]1CN([C@@H](C)CO)C(=O)Cc2cc(NS(=O)(=O)c3cccs3)ccc2O[C@@H]1CN(C)Cc1ccc(C(=O)Nc2ccccc2N)cc1	·	0.2	-18.4	-0.531
O=S1(=O)C=C2C(C1)SC(=S)N2C1CCS(=O)(=O)C1 (configuration not stated)	-0.7	-0.3	-8.3	-0.399
Cc1ccc(NC(=O)c2ccc(-n3nc(C(F)(F)F)c4c3-c3ccoc3CC4)cc2)cc1	·	1.0	10.0	0.282
C[C@H]1CN([C@@H](C)CO)C(=O)c2cc(NC(=O)Nc3ccccc3)ccc2O[C@@H]1CN(C)C(=O)Nc1cccc2ccccc12	-0.8	2.8	2.8	0.123
Cc1ccc(S(=O)(=O)Nc2ccc3c(c2)C(=O)N([C@H](C)CO)C[C@H](C)[C@@H](CN(C)C(=O)Nc2ccc4c(c2)OCO4)O3)cc1	·	-0.4	1.1	0.047
O=C1C(=O)N(CCCn2ccnc2)C(c2ccccc2)C1C(=O)c1ccco1 (configuration not stated)	·	4.0	-4.9	·
COc1c(O)c2c(=O)cc(OC)c3c4c(OC)cc(=O)c5c(O)c(OC)c(C[C@@H](C)OC(=O)c6ccccc6)c(c(c1C[C@@H](C)OC(=O)Oc1ccc(O)cc1)c23)c54	72.5*	-9.9	74.3	0.102
Fc1ccccc1CSc1nnc(-c2cnccn2)n1Cc1ccco1	·	-1.1	-105.6	·
Cc1ccc(Cl)c(OCC(O)Cn2cnc3cc(C)c(C)cc32)c1 (configuration not stated)	·	-2.0	30.5	·
Cc1noc(C)c1S(=O)(=O)Nc1ccc2c(c1)C(=O)N([C@@H](C)CO)C[C@@H](C)[C@@H](CN(C)Cc1ccc(Oc3ccccc3)cc1)O2	28.9	-0.9	17.3	-0.517
Cc1noc(C)c1NC(=O)Nc1cccc2c1O[C@@H](CN(C)C(=O)Nc1ccccc1)[C@H](C)CN([C@H](C)CO)C2=O	-4.8	0.6	-1.2	-0.783
CCc1ccc(-n2c(N)c(C(=O)OC)c3nc4ccccc4nc32)cc1	8.8	-0.1	4.8	-0.14
C[C@@H]1CN([C@@H](C)CO)C(=O)c2cc(NC(=O)CCCN(C)C)ccc2O[C@@H]1CN(C)Cc1ccc(C(=O)O)cc1	-6.3	0.7	5.3	-0.278
CC(=O)NC(Cc1c[nH]c2ccccc12)C(=O)O (configuration not stated)	-6.8	·	·	-0.453
Cn1c(SCC(=O)Nc2ccccc2-c2ccccc2)nnc1-c1ccccn1	·	0.2	16.4	·
Cc1ccc(S(=O)(=O)c2nc(-c3ccccc3F)oc2NCC2CCCO2)cc1 (configuration not stated)	·	-0.5	5.8	·
COc1ccc(NC(=O)Nc2cccc3c2O[C@@H](CN(C)C)[C@@H](C)CN([C@@H](C)CO)C3=O)cc1	-1.4	·	-10.8	-0.116
CCc1cccc(C)c1NC(=O)CSc1nnc(-c2ccc(C)cc2)n1C	·	1.1	14.5	·
Cc1noc(C)c1NC(=O)N(C)C[C@@H]1Oc2ccc(NC(=O)Cc3cn(C)c4ccccc34)cc2C(=O)N([C@@H](C)CO)C[C@H]1C	·	-0.9	15.4	-0.157
Cc1ccc(S(=O)(=O)N(C)C[C@H]2Oc3c(NC(=O)Nc4ccc(F)cc4)cccc3C(=O)N([C@@H](C)CO)C[C@H]2C)cc1	14.3	-2.0	50.4	0.0515
C[C@H]1CN([C@@H](C)CO)C(=O)Cc2cc(NC(=O)Cc3ccccc3)ccc2O[C@@H]1CN(C)Cc1ccc2c(c1)OCO2	-4.4	-0.8	5.6	-0.319
CCCCN1CCCCC1C(=O)Nc1c(C)cccc1C (configuration not stated)	-77.6	·	0.4	0.049
C[C@H](CO)N1C[C@H](C)[C@@H](CN(C)S(C)(=O)=O)Oc2ccc(NS(=O)(=O)c3ccc(Cl)cc3)cc2C1=O	-3.6	1.4	-7.4	0.128
C[C@H](CO)N1C[C@H](C)[C@@H](CN(C)Cc2ccc(Cl)c(Cl)c2)Oc2ccc(NS(C)(=O)=O)cc2C1=O	17.9	-1.1	-9.9	-0.0241
O=C(c1ccc(C(=O)N2CCCCC2)cc1)N1CCCCC1	-42.7	-1.1	8.2	-0.264
O=C(O)c1cccc(NC(=O)c2ccc(CN3C(=O)c4ccccc4C3=O)cc2)c1	·	1.1	-13.9	·
Cc1noc(C)c1S(=O)(=O)N(C)C[C@@H]1Oc2ccc(NC(=O)NC3CCCCC3)cc2CC(=O)N([C@H](C)CO)C[C@H]1C	2.2	·	5.3	-0.159
CN(/N=C(\C#N)C(=O)C1CC1)c1ccc(Cl)cc1	11.9	-0.9	-4.4	0.184
COc1ccc(NC(=O)C2CC(=O)NC(=Nc3ccccc3)S2)cc1 (configuration not stated)	·	1.9	-9.8	-0.688
C[C@@H]1CN([C@@H](C)CO)C(=O)c2cc(NS(=O)(=O)c3ccc(Cl)cc3)ccc2O[C@H]1CN(C)Cc1ccncc1	·	-0.6	-16.1	-0.171
CNC[C@H]1Oc2c(NS(C)(=O)=O)cccc2C(=O)N([C@@H](C)CO)C[C@H]1C	13.8	1.6	2.0	-0.48
C[C@@H]1CN([C@H](C)CO)C(=O)c2cc(NC(=O)Nc3ccccc3)ccc2O[C@H]1CN(C)Cc1ccc2c(c1)OCO2	4.5	0.5	10.0	-0.302
COc1ccc(N2C(=O)CC(SCC(=O)Nc3ccc(C)c(C)c3)C2=O)cc1 (configuration not stated)	·	-2.3	-4.7	·
C[C@@H]1O[C@@H](O[C@H]2[C@H](Oc3cc(O)c4c(c3)O[C@H](c3ccc(O)c(O)c3)CC4=O)O[C@H](CO)[C@@H](O)[C@@H]2O)[C@H](O)[C@H](O)[C@H]1O	-2.5	1.2	-0.3	-0.681
CC(C)(C)c1cc2nc(N)nc(N)n2n1	-9.7	0.7	5.3	0.328
C[C@H](CO)N1C[C@H](C)[C@H](CN(C)CC2CC2)Oc2c(NC(=O)NC3CCCCC3)cccc2C1=O	-12.7	2.2	-6.8	-0.196
Cc1noc(C)c1NC(=O)N(C)C[C@@H]1Oc2ccc(NC(=O)CCN3CCOCC3)cc2C(=O)N([C@H](C)CO)C[C@H]1C	-25.6	1.4	-0.5	0.445
C[C@@H]1CN([C@@H](C)CO)C(=O)c2cc(NS(=O)(=O)c3cccs3)ccc2O[C@@H]1CN(C)C(=O)NC1CCCCC1	·	-1.4	-13.5	0.0177
COc1ccc(S(=O)(=O)N(C)CC(=O)NC2CCCC2)cc1C	·	-0.5	2.7	·
CNC[C@H]1Oc2ccc(NC(=O)Nc3ccc4c(c3)OCO4)cc2CC(=O)N([C@@H](C)CO)C[C@H]1C	3.8	-4.4	-12.5	-0.617
Cc1ccc(-c2nn3c(=O)c4ccccc4nc3c3ccccc23)cc1	·	0.7	7.4	-0.338
COc1ccccc1N1CCN(CCCCNC(=O)c2ccc3ccccc3c2)CC1	22.6	·	17.2	0.128
C[C@@H]1CN([C@H](C)CO)C(=O)c2cccc(NS(C)(=O)=O)c2O[C@@H]1CN(C)Cc1ccc(Cl)c(Cl)c1	-22.7	·	-23.6	0.0327
O=C(COc1ccc(Br)cc1)Nc1cccc2ncccc12	·	-0.7	-39.4	·
C[C@H]1CN([C@@H](C)CO)C(=O)Cc2cc(NC(=O)Nc3ccccc3)ccc2O[C@@H]1CN(C)CC1CCCCC1	-25.4	3.6	-3.1	0.286
The results go on.
SMILES	Shh pathway inh	PD-1 reverse act	MITF inhib	YB-1 expr inh
O=C(COc1ccccc1[N+](=O)[O-])Nc1cccc(Cl)c1N1CCOCC1	·	-0.1	55.2	·
COc1ccc(NC(=O)Nc2ccc3c(c2)C(=O)N([C@@H](C)CO)C[C@H](C)[C@H](CN(C)S(=O)(=O)c2cccs2)O3)cc1	15.3	-1.1	-6.8	-0.0789
Cc1nc(SCC(=O)NCc2ccco2)c2c3c(sc2n1)CCC3	·	-3.2	-24.4	·
COc1cc(=O)oc([C@@]2(C)O[C@H]2/C(C)=C\C(C)=C\[C@@]2(C)O[C@@H](C)[C@]3(C)OC23)c1C (some centres not stated)	58.4	-5.3	75.1	-0.231
C[C@H]1CN([C@@H](C)CO)C(=O)c2cc(NS(=O)(=O)c3ccc(F)cc3)ccc2O[C@H]1CN(C)S(=O)(=O)c1cccs1	·	-2.0	-18.3	-0.726
CC(C)NC(=O)N(C)C[C@@H]1Oc2ccc(NC(=O)Nc3ccc(F)cc3)cc2C(=O)N([C@@H](C)CO)C[C@@H]1C	-8.6	0.6	3.3	-0.0975
C[C@H](CO)N1C[C@H](C)[C@H](CN(C)C(=O)Nc2ccccc2)Oc2c(cccc2N(C)C)C1=O	·	·	4.6	-0.123
Cc1noc(C)c1NC(=O)N(C)C[C@H]1Oc2c(NC(=O)CCCCCC(=O)Nc3ccccc3N)cccc2C(=O)N([C@@H](C)CO)C[C@@H]1C	·	1.3	-27.8	-0.251
C[C@@H]1CN([C@H](C)CO)C(=O)c2cc(NC(=O)Nc3ccc4c(c3)OCO4)ccc2O[C@H]1CN(C)Cc1ccc(-c2ccccc2)cc1	?	-4.0	-10.6	0.369
COc1ccc(C)cc1S(=O)(=O)N1CCC(C(=O)Nc2ccc3c(c2)OCCO3)CC1	·	0.9	-25.3	·
Cc1nc(SCC(=O)Nc2ccc3c(c2)OCCO3)c2c3c(sc2n1)CCC3	·	2.2	-2.1	·
C[C@@H]1CN([C@@H](C)CO)C(=O)c2cc(NC(=O)Nc3ccccc3)ccc2O[C@@H]1CN(C)Cc1ccncc1	·	-0.4	1.1	1.48
CC(C)NC(=O)Nc1ccc2c(c1)C(=O)N([C@@H](C)CO)C[C@@H](C)[C@@H](CN(C)Cc1ccncc1)O2	·	-0.1	11.7	0.147
CSc1scc2c1C(=O)CC(C)(C)C2	-8.5	-1.0	0.8	-0.41
O=C(O)c1cccc(NS(=O)(=O)c2cc(S(=O)(=O)c3ccc(Cl)cc3)ccc2Cl)c1	·	3.3	-7.3	·

Another view of 4 compounds above:
O=C(COc1ccccc1[N+](=O)[O-])Nc1cccc(Cl)c1N1CCOCC1
- Shh pathway inh: ·
- PD-1 reverse act: -0.1
- MITF inhib: 55.2
- YB-1 expr inh: ·
COc1ccc(NC(=O)Nc2ccc3c(c2)C(=O)N([C@@H](C)CO)C[C@H](C)[C@H](CN(C)S(=O)(=O)c2cccs2)O3)cc1
- Shh pathway inh: 15.3
- PD-1 reverse act: -1.1
- MITF inhib: -6.8
- YB-1 expr inh: -0.0789
Cc1nc(SCC(=O)NCc2ccco2)c2c3c(sc2n1)CCC3
- Shh pathway inh: ·
- PD-1 reverse act: -3.2
- MITF inhib: -24.4
- YB-1 expr inh: ·
COc1cc(=O)oc([C@@]2(C)O[C@H]2/C(C)=C\C(C)=C\[C@@]2(C)O[C@@H](C)[C@]3(C)OC23)c1C (some centres not stated)
- Shh pathway inh: 58.4
- PD-1 reverse act: -5.3
- MITF inhib: 75.1
- YB-1 expr inh: -0.231

Source: PubChem BioAssay (Broad Institute)
